Source: PubChem
SARS PLP yeast – inhibitors of SARS-CoV papain-like protease in yeast. 330,000 compounds, 0.19% hits. S. cerevisiae expressing SARS-CoV PLpro, growth rescue; control for the full effect not named in the record. Potency, µM (top dose mostly 32.9 µM), without a hit: at the highest dose activity, positive = growth rescue; active means well fitted rising curve with a large enough effect; inconclusive means small, poorly fitted or top-dose-only effect; inactive means no such curve, though single readings can be large or run the other way; further: 0% is about no effect; nearly all actives have a fitted effect of over 55% in size; growth read by luminescence after 48 h
2A StopGo – lowers the luciferase signal of an FMDV 2A StopGo reporter; 410,000 compounds, 1.2% hits; AID 1159524; Potency, µM (highest dose often 57.9 µM), for the others: top-dose signal change, negative = less light; human cells with a luciferase reporter of 2A StopGo recoding; control for the full effect not named in the record; active = well fitted falling curve with a large enough effect; inconclusive = small, poorly fitted or top-dose-only effect; inactive = no such curve, though single readings can be large or run the other way; tested in HEK293T cells; further: on the % scale 0 is the no-effect control and ±100 the full control effect; nearly all actives have a fitted effect of over 45% in size; luciferase light after 4 h
RE007 growth inh – less growth of the S. pombe RE007 Vpr strain. AID 651644. Potency, µM (titrated, usually from 92.2 µM), for inactives: at the top dose activity change, negative = less growth. 360,000 compounds, 0.21% hits. S. pombe RE007 Vpr strain, BacTiter-Glo ATP luminescence, 24 h; control for the full effect not named in the record; active = well fitted falling curve with a large enough effect; inconclusive = small, poorly fitted or top-dose-only effect; inactive = no such curve, though single readings can be large or run the other way;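 further: on the % scale 0 is the no-effect control and ±100 the full control effect; nearly all actives have a fitted effect of over 50% in size; the assay follows cell death caused by Vpr and the record does not say whether a fall means rescue or toxicity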
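Fission yeast RE007 carrying one integrated HIV-1 vpr copy, seeded at OD 0.01 in PMG+AL medium with 23 nL pinned compound. Grown 24 h at 30 degrees; viability read by BacTiter-Glo luminescence after 5 min.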
The depositor's hits bear a star; ? = inconclusive; [ ] = another dose, or the depositor's remark. Potency means the concentration at half of the fitted maximal effect. These rows are one share of the data, so the mix of outcomes need not match the whole.

item	canonical_smiles	SARS PLP yeast	2A StopGo	RE007 growth inh
1	CCOC(=O)c1ccc(N2C(=O)[C@@H](c3ccccc3)[C@H]2c2ccccc2)cc1	-16%	-21%	-11%
2	CNC(=S)N(CCc1c(C)[nH]c2ccc(C)cc12)Cc1cccs1	1%	-9%	5%
3	O=C(Cc1cccc(NC(=O)C2CCCN(C(=O)C3CCCCC3)C2)c1)Nc1cccc(C(=O)N2CCCC2)c1 (stereo not drawn)	1%	-8%	-4%
4	O=C([C@@H]1CCCN1C(=O)c1cccs1)N1CCN(S(=O)(=O)c2cccc(F)c2)CC1	-11%	4%	-12%
5	O=C(Nc1c2c(nn1-c1ccccc1)CSC2)c1ccc(N2C(=O)CCC2=O)cc1	3%	-2%	4%
6	CSc1ccccc1C(=O)N1CCN(c2ncccn2)CC1	1%	-3%	-12%
7	COCCNC(=O)c1c(CS(=O)(=O)c2ccccc2)noc1C(=O)NCc1ccccc1	0%	-7%	-4%
8	C[C@@]12C(=O)N(Cc3ccco3)CC(=O)N1[C@H]1c3ccccc3OC[C@@H]1[C@@H]2c1ccccc1	7%	?	-2%
9	C=CC[C@H](CC(=O)N(CCO)Cc1ccccc1)C(=O)N[C@@H](COC(=O)[C@H](CC=C)CC(=O)OC(C)(C)C)Cc1c[nH]c2ccccc12	2%	?	4%
10	Cc1ccc(S(=O)(=O)N2CCOCC2)cc1C(=O)OCC(=O)NCc1ccc2c(c1)OCO2	1%	-13%	-5%
11	CC(C)CNC(=S)NC1CC2CCCC(C1)N2C1CCCCC1 (stereo not drawn)	2%	-14%	-17%
12	CCC1CCCCN1C(=S)NC(=O)c1cc(Br)ccc1Cl (stereo not drawn)	-2%	?	-19%
13	CCN(CC(=O)Nc1ccc(NC(C)=O)cc1)C(=O)CCCc1c[nH]c2ccccc12	-10%	-4%	5%
14	CN(CC(=O)Nc1ccccc1Cl)C(=O)CCNC(=O)Nc1ccccc1	0%	-19%	6%
15	NC(=O)c1sc2nc3c(cc2c1N)CCC3	-2%	36%[activator]	0%

Entries by screen from above.
Compounds 1 to 11 in RE007 growth inh: -11%, 5%, -4%, -12%, 4%, -12%, -4%, -2%, 4%, -5%, -17%
Compounds 1 to 11 in 2A StopGo: -21%, -9%, -8%, 4%, -2%, -3%, -7%, ?, ?, -13%, -14%
Compounds 1 to 11 in SARS PLP yeast: -16%, 1%, 1%, -11%, 3%, 1%, 0%, 7%, 2%, 1%, 2%

Next part.
item	canonical_smiles	SARS PLP yeast	2A StopGo	RE007 growth inh
16	Cc1ccc(S(=O)(=O)N2C[C@@H]3[C@H]4CC[C@H](C4)[C@@H]3[C@@H](C)C2CC(=O)c2ccccc2)cc1 (stereo partly drawn)	-2%	20%	5%
17	C=CC[C@H](CC(=O)NCCO)C(=O)N[C@@H](COC(=O)[C@@H](CC=C)Cc1ccc(F)cc1)Cc1c[nH]c2ccccc12	-17%	-22%	-16%
18	CCN1C(=O)[C@H]2[C@@H](c3ccc(-c4cc(C(C)=O)cs4)cc3)N3CCCC[C@@]3(C(=O)OC)[C@H]2C1=O	-2%	?	16%
19	CC(C)(C)NCC(O)Cn1cc(C=O)c2ccccc21 (stereo not drawn)	0%	0%	14%
20	CC1Cc2ccccc2N1C(=O)CN(C)CC(=O)Nc1ccc(OC(F)(F)F)cc1 (stereo not drawn)	-30%	7%	?
21	C[C@@H](O)[C@H]1O[C@]2(C)CCC[C@H]1O2	0%	-12%	10%
22	CCOC(=O)c1c(C)[nH]c(C(=O)COC(=O)c2cc(C)oc2C)c1C	5%	-16%	-22%
23	CC(C)c1onc(C(=O)Nc2cccc(Cl)c2)c1[N+](=O)[O-]	-2%	23%	-9%
24	O=c1[nH]nc(CNc2cccc(C(F)(F)F)c2)c2ccccc12	2%	-29%	9%
25	CCc1ccc([C@H]2C(C(=O)O)=C[C@@H](CC3CCCC3)N2S(=O)(=O)c2ccc(C)cc2)cc1	-3%	10%	-1%
26	COC(=O)C1=C(c2ccc(F)cc2OCc2ccccc2)C[C@@H]2CC[C@H]1N2C(=O)NCc1cccc(C(F)(F)F)c1	-1%	0%	3%
27	COc1ccc([C@H]2CC(=O)C=C(c3ccccc3OC)C2)cc1OC	-1%	?	13%
28	O=C(CN1C(=O)NC(Cc2c[nH]c3ccccc23)C1=O)Nc1ccccc1Br (stereo not drawn)	-3%	-3%	-1%
29	COc1ccc(S(=O)(=O)N2CCCCC2)cc1NC(=O)CSc1nnc(C2CC2)n1C	-10%	1%	11%
30	CCN(C(=O)CN1C(=O)NC(c2ccccc2)(c2ccc(C)c(C)c2)C1=O)C1CCCCC1 (stereo not drawn)	1%	?	11%
31	CCc1ccc(NC(=O)C(C)OC(=O)CN2C(=O)NC3(CCCC3)C2=O)cc1 (stereo not drawn)	1%	-11%	1%
32	CCOC(=O)[C@H]1[C@H]2COc3ccc(Cl)cc3[C@@H]2N2C(=O)c3cc(F)ccc3NC(=O)[C@@]12C	-2%	0%	1%
33	O=c1oc(CCCO)cc2ccc(C#CC3(O)CCCCC3)cc12	6%	35%[activator]	10%
34	O=C(NCc1ccco1)c1ccc(Cl)c(S(=O)(=O)N2CCCC2)c1	-2%	13%	6%
35	C=CC[C@@H](CC(=O)N[C@@H](CO)Cc1ccccc1)C(=O)N[C@H](COC(=O)[C@@H](CC=C)Cc1ccc(F)cc1)C(C)(C)C	-3%	-17%	2%
36	O=C(COC(=O)c1ccco1)NC1CCCc2ccccc21 (stereo not drawn)	-1%	1%	4%
37	CCCCC[n+]1cccc2c3ccccc3ccc21	-3%	?	-10%
38	COc1ccc(-n2nnnc2SCC(=O)NC2CC2)cc1	0%	-6%	12%
39	COc1ccc(C2(c3ccc(OC(C)=O)cc3OC(C)=O)CC(c3ccccc3)NC(=S)N2)cc1 (stereo not drawn)	0%	-3%	64%
40	COc1ccccc1C(C)NC(=O)c1cc(S(=O)(=O)N2CCCCC2)ccc1C (stereo not drawn)	9%	-19%	13%
41	COC(=O)C1=C(c2ccc(OC)c(OC)c2)C[C@@H]2CC[C@H]1N2C(=O)NCCNC(C)=O	4%	-8%	3%
42	COc1cc2[nH]c(=O)n(Cc3ccc(C(=O)NC4CCN(Cc5ccccc5)CC4)cc3)c(=O)c2cc1OC	2%	-9%	-1%
43	Cc1cn(C2CC(OC(=O)C(C)C)C(CO)O2)c(=O)[nH]c1=O (stereo not drawn)	-3%	-9%	12%
44	O=[N+]([O-])c1cc(-c2nnc(N3CCOCC3)c3ccccc23)ccc1N1CCOCC1	0%	?	6%
45	O=C(Nc1nnc(SCc2ccc(F)cc2)s1)C1=COCCO1	13%	32%[activator]	-10%
46	Cc1sc2nc(CSC(C)C(=O)Nc3ccccn3)[nH]c(=O)c2c1C (stereo not drawn)	3%	37%[activator]	4%
47	Cc1cccc(C)c1OCC(O)CN1CCCCC1 (stereo not drawn)	1%	-20%	-13%
48	Cc1ccc(C(O)C(=O)c2ccco2)cc1 (stereo not drawn)	4%	-23%	-15%
49	Cc1cccc(C(=O)NC(C)C(=O)NC(c2nc3ccccc3[nH]2)C(C)C)c1 (stereo not drawn)	8%	-5%	0%
50	CCN(C(=O)Cn1c(Cl)nc2c1c(=O)n(C)c(=O)n2C)C1CCCCC1	-1%	-16%	-17%
51	O=C1C=C(c2cc3ccccc3o2)C[C@@H](c2ccc(F)cc2)C1	0%	3%	-13%
52	Cc1cc(NC(=O)c2ccccc2)n(-c2nc3ccccc3[nH]2)n1	1%	-20%	1%
53	CC(=O)Nc1ccc(NC(=O)CSc2nnc(-c3ccc4c(c3)OCO4)o2)cc1	-7%	1%	-9%
54	CCCNCC1C(Oc2ccc(Cl)cc2Cl)C(=O)N1c1cccc(C)c1C (stereo not drawn)	-13%	?	2%
55	Cc1cc(Oc2ccc(=O)n(C)n2)nc(SCc2ccccc2)n1	0%	-14%	6%
56	COc1cccc(-c2sc3ccc(OC)cc3c2-c2ccc(OCCN3CCCCC3)cc2)c1	-27%	0%	-5%
57	Cc1cnc(NC(=O)CCCNC(=O)c2ccc(Cl)cc2)s1	0%	55%[activator]	-8%
58	CC1(C)C[C@@H](O)[C@]2(C)CC[C@]3(C)C(=CCC4[C@@]5(C)CC[C@H](O)[C@](C)(CO)C5CC[C@]43C)[C@@H]2C1 (stereo partly drawn)	-4%	-24%	-22%
59	CCC(Oc1ccccc1)C(=O)N1CCN(S(=O)(=O)c2ccccc2)CC1 (stereo not drawn)	2%	-29%	-3%
60	COc1ccc(-c2cc(C(=O)NCCCn3ccnc3)no2)cc1	0%	13%	3%

Excerpt: nos. 59–60
item	canonical_smiles	SARS PLP yeast	2A StopGo	RE007 growth inh
59	CCC(Oc1ccccc1)C(=O)N1CCN(S(=O)(=O)c2ccccc2)CC1 (stereo not drawn)	2%	-29%	-3%
60	COc1ccc(-c2cc(C(=O)NCCCn3ccnc3)no2)cc1	0%	13%	3%

The list goes on.
item	canonical_smiles	SARS PLP yeast	2A StopGo	RE007 growth inh
61	C[C@H](CO)N1C[C@H](C)[C@@H](CN(C)C(=O)NC2CCCCC2)Oc2ccc(NC(=O)Nc3ccccc3)cc2C1=O	0%	-17%	-14%
62	C[C@H](CO)N1C[C@H](C)[C@@H](CN(C)Cc2ccccc2)Oc2ccc(NC(=O)Cn3cnnn3)cc2C1=O	2%	-10%	1%
63	COC(=O)C1=C(c2ccc(-c3ccccc3)c(F)c2)C[C@@H]2CC[C@H]1N2C(=O)NCCc1ccccc1	-6%	?	11%
64	O=C(OCC(=O)N1CCCC1)c1ccc(Cl)nc1	4%	1%	-5%
65	Cc1cc(C(=O)OCC(=O)N2CCOCC2)c(C)n1-c1ccccc1	0%	36%[activator]	-5%
66	CN(C)c1ccc(S(=O)(=O)NCC(=O)OCC(=O)c2ccc[nH]2)cc1[N+](=O)[O-]	1%	16%	1%
67	CC(=O)N(C1=NCCCS1)c1ccccc1Cl	1%	-3%	-7%
68	C[C@H]1CN([C@@H](C)CO)C(=O)c2cccc(NC(=O)C3CC3)c2O[C@H]1CN(C)CC1CCCCC1	0%	5%	0%
69	COc1c(O)c(=O)n2c3ccccc3c3ccnc1c32	1%	-27%	-20%
70	COc1ccc(NC(=O)[C@@H](NS(=O)(=O)c2cccc(Cl)c2)C(C)C)cc1S(=O)(=O)N1CCOCC1	1%	17%	1%
71	O=S(=O)(c1ccccc1F)N1CCN(Cc2cc3c(cc2O)OCO3)CC1	1%[6.58 µM]	-8%	-22%
72	CCOC(=O)C1CCN(C(=O)CN2C(=O)NC3(CCCCC3)C2=O)CC1	-2%	-1%	-20%
73	CC[C@@H](C)[C@H](N)C(=O)NC[C@H]1O[C@@H](n2cnc3c(N)ncnc32)[C@H](O)[C@@H]1O	0%	?	10%
74	CCN(CC(=O)NNC(=O)c1ccccc1)Cc1ccc(OC)c(F)c1	1%	29%	5%
75	CC1CCCCC12NC(=O)N(CC(=O)N1CCN(c3ncccn3)CC1)C2=O (stereo not drawn)	9%	-18%	0%
76	O=C1OC[C@@H]2CCCN2C(=O)[C@@H](CC(=O)N(CCO)Cc2ccccc2)C/C=C\C[C@@H]1Cc1ccc(F)cc1	-33%	-19%	-3%
77	Cc1cc(Br)ccc1NC(=O)CN1C(=O)C2CC=CCC2C1=O (stereo not drawn)	-3%	-7%	58%
78	OCC[C@H]1C[C@H](O)[C@@H](O)[C@]2(CCCc3ccccc3O2)O1	2%	7%	1%
79	CN(CC(=O)Nc1ccccc1Cl)C1CCS(=O)(=O)C1 (stereo not drawn)	-1%	-12%	7%
80	COc1ccccc1NC(=O)c1cccc(S(=O)(=O)N2CCN(c3ccccc3)CC2)c1	-2%	?	2%
81	CC1CCCC(NC(=O)c2ccc3c(c2)OCCO3)C1C (stereo not drawn)	-2%[6.58 µM]	36%[activator]	3%
82	Cc1ccsc1/C=N/NC(=O)CNC(=O)c1ccc(S(=O)(=O)N(C)C)cc1	-3%	-15%	4%
83	CC(C)C[C@@H]1CN=C(N)N1C[C@@H]1CCCN1C[C@H](C)N1C[C@@H](Cc2ccccc2)N(CCCC2CCCC2)C1=N	-1%	-24%	1%
84	COCCCNC(=O)C[C@H]1C[C@H](C(=O)N(C(C)C)C(C)C)[C@@]2(C)c3[nH]c4ccc(Cl)cc4c3CCN2C1=O	12%	0%	-10%
85	Cc1cccnc1NC(=O)CCC(=O)c1cccs1	1%	-11%	-14%
86	Cc1noc(C)c1NC(=O)N(C)C[C@@H]1Oc2ccc(NC(=O)CCC(F)(F)F)cc2CC(=O)N([C@@H](C)CO)C[C@@H]1C	5%	-21%	-10%
87	CC(C)(C)OC(=O)NCc1ccc(NC(=O)c2nc[nH]c2C(=O)NCCCNC(=O)c2[nH]cnc2C(=O)Nc2ccc(CNC(=O)OC(C)(C)C)cc2)cc1	6%	?	3%
88	Cc1cnc(NC(=O)c2ccc3c(c2)OCCO3)s1	1%	10µM*	-25%
89	C/C(=N\NC(=O)c1ccc(-n2cnnn2)cc1)c1ccc(C)cc1	-2%	-21%	5%
